# Screens deposited in PubChem by several laboratories.
# PrP 5UTR inh = inhibition of PrP 5' UTR reporter expression; 340,000 tested, 0.35% active; inhibition, % (no concentration beside the values); cell-based PrP 5' UTR mRNA reporter, plate reader;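 active = every replicate at 50% or more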;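 note: 0 = median of the neutral control wells; tested in H4 reporter cells; numbers are from one replicate; inactives centre near -14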
# RN4220 kill = growth inhibition of S. aureus RN4220, primary screen, OD600; 16 h; inhibition, % (concentration not given with the values); 330,000 tested, 0.33% active;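 active = z-score of -3 or lower and OD600 up to 0.18 on both plates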;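 note: plate controls were untreated cells for no effect and reference antibiotic for full effect; stock transfer was 100 nL into about 80 µL; one replicate is shown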
# Autofluor counter = counter-screen for toxin protease inhibitors: compound fluorescence | compound autofluorescence counterscreen, microsphere flow cytometry; active compounds read high | fluorescence intensity (no concentration beside the values) | 360,000 tested, 3.1% active;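 active = at least 3 SD above the mean of all compounds, about 16000 in these data; inconclusive = too few beads counted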;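 note: 100 nL of 1 mM stock went into each well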
# Sa ugtP lethal = growth inhibition of ugtP-null S. aureus, primary screen, RN4220 ugtP deletion, OD600 | 16 h; some inactives read as strong as hits | growth inhibition, % (concentration not given with the values) | AID 1259309, 2017 | 330,000 tested, 0.54% active;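 active = z-score under -3 and OD600 up to 0.15 on both plates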;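 note: plate controls were untreated wells for no effect and antibiotic for full effect; wells of about 80 µL received 100 nL stock; the first replicate is given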
# BJeLR lethal = MLPCN primary cell-based screen for lethality selective to Ras in HRASV12 cells; AID 1554, 2009; inhibition, % (test concentration not listed); 300,000 tested, 0.17% active; BJeLR (HRASV12) viability, CellTiter-Glo ATP luminescence, 48 h; reference of the scale not given here;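 active = replicate mean above 50%; inconclusive = above 50% but judged a plate artefact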;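 note: 50 nL library stock added to about 25 µL; numbers are from one replicate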
# Mtb hypoxia rep = PubChem AID 1159583 | M. tuberculosis hypoxia-regulated fluorescent reporter, fluorescence | fluorescence inhibition, % (concentration not given with the values) | 300,000 tested, 0.1% active;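 active = 35 to 45% if threefold the growth effect, above 45% if 1.5-fold the growth effect; inactive = the rest, general growth blockers included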;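 note: wells of about 50 µL received 100 nL stock; 0% = vehicle wells and 100% = reference inhibitor wells; whole bacteria with a GFP reporter of the hypoxia response; strong numbers were not always called active; many hits fall short of the cut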
# Mtb hypoxia rep growth = recorded beside Mtb hypoxia rep, whose call it bears; growth inhibition, %; measured here: M. tuberculosis growth (absorbance);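 0% = vehicle and 100% = reference antibiotic; read after six days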
# Numbers without * were called inactive; u = inconclusive; x = not tested or not shown.
SMILES	PrP 5UTR inh	RN4220 kill	Autofluor counter	Sa ugtP lethal	BJeLR lethal	Mtb hypoxia rep	Mtb hypoxia rep growth
CC(=O)Nc1ccc(C(=O)NC2CCSc3ccccc32)cc1 (stereo not drawn)	-31	0.3	6330	-5	3	12	0
O=C(Oc1ccccc1N1CCOCC1)c1ccccc1	-5	5.1	3389	6	-7	9	4
CCOC(=O)c1c(C)[nH]c(C)c1S(=O)(=O)N(C)CC(=O)Nc1cccc(F)c1	-4	1.6	5185	6	10	10	8
Cn1c(=O)c2ncn(CC(=O)NCCOCc3ccccc3Cl)c2n(C)c1=O	-50	1.8	2427	1	1	7	2
Cc1ccc(N(CC(=O)NCc2ccncc2)S(C)(=O)=O)cc1	-16	5.6	4850	7	0	x	x
O=C(CCCOc1ccccc1)Nc1nnc(C2CCCO2)s1 (stereo not drawn)	-13	1.4	9757	1	3	4	2
CC(=O)Nc1ccc(NC(=O)C(C)OC(=O)c2ccc3[nH]c(C)c(C)c3c2)cc1 (stereo not drawn)	-16	-0.5	u	-1	0	4	4
COc1ccc(-c2cc(C)no2)cc1S(=O)(=O)NCCCN1CCN(c2ccccc2)CC1	1	2.1	4118	-1	1	3	7
COc1ccc(C=NNC(=O)c2cccnc2)c(C(=O)O)c1OC	x	3.2	x	6	x	5	5
Cc1occc1C(=O)NN=C/C(Br)=C\c1ccccc1	x	-3.4	x	10	x	1	2
O=C(NC1CCN(Cc2ccccc2)CC1)c1ccccc1Cl	-16	0.6	x	3	-13	7	-2
CN(Cc1ccccc1)C(=O)c1cc(-c2ccc(Br)cc2)on1	-55	4.6	23868*	25	4	2	4
Cc1cc(C)nc(NS(=O)(=O)c2ccc(N=Cc3c(C)[nH]n(-c4ccccc4)c3=O)cc2)n1	-55	4.3	8270	2	-5	9	8
Cc1ccc(NC(=O)CCn2cc(C(F)(F)F)ccc2=O)cc1	x	1.5	5556	6	-17	11	-9
Cc1ccc(NC(NC(=O)OCCn2c([N+](=O)[O-])cnc2C)C(Cl)(Cl)Cl)cc1 (stereo not drawn)	x	6.3	x	-8	23	9	-2
c1ccc(Cn2nnc3c(N4CCN(Cc5ccc6c(c5)OCO6)CC4)ncnc32)cc1	-4	-2.6	24167*	12	5	1	2
Cc1ccccc1Nc1c(-c2ccc(N3CCOCC3)cc2)nc2ncccn12	-31	4.3	4264	9	-5	-2	9
CN(CC(=O)NNC(=O)CCNS(=O)(=O)c1ccccc1)S(=O)(=O)c1ccc(Cl)cc1	-10	4.8	u	2	3	0	1
O=C(C1CCCN(CCCc2ccccc2)C1)N1CCCCCC1 (stereo not drawn)	-8	6.3	2396	14	-13	5	1
NC(=O)c1ccc(NC(=O)COC(=O)C2CC3C=CC2C3)cc1 (stereo not drawn)	1	4.5	2998	3	x	5	4
CCOCCCNC(=O)C(NC(=O)c1ccc(NC(C)=O)cc1)c1ccc(C)cc1 (stereo not drawn)	-41	0.2	2361	7	12	9	4
COc1ccc(CNC(=O)C(C)Cc2ccccc2)cc1O (stereo not drawn)	-19	2.2	4466	-3	0	8	11
CC1(C)C=Cc2c(c3c(c4c(=O)c(-c5ccc(O)cc5)coc24)OC(C)(C)CC3)O1	-26	7.4	5767	26	-8	x	x
O=C(CN1CC=C(c2ccccc2)CC1)Nc1c(Cl)cccc1Cl	-6	5.4	9968	12	-6	18	9
COC(=O)[C@H](CCSC)NC(=O)Cn1cnc2c(SC)nc(N)nc21	-16	0.3	3776	2	x	x	x
Cc1ccc(-c2csc3nc4ccc(C(=O)NCCO)cc4c(=O)n23)cc1	-3	0.6	4169	6	-7	11	13
CC(=O)Nc1cccc(NC(=O)CCn2c(=O)sc3ccccc32)c1	-12	4.0	3894	-5	-3	4	10
CCc1ccc(CCC(=O)Nc2nc(CC(C)=O)ns2)o1	-23	6.7	16142*	8	6	8	9
OC[C@@H]1[C@@H](c2ccccc2)C(c2ccccc2)=NN1c1ccccc1	-9	-7.9	3719	-9	x	0	-3
Cc1ccc(S(=O)(=O)N2CCC(C(=O)N3CCC(C(=O)NCC4CCCO4)CC3)CC2)cc1 (stereo not drawn)	4	7.5	7979	5	-2	19	6
Cc1ccc(-c2nnc(COC(=O)c3cc(=O)[nH]c4ccccc34)o2)cc1	-4	1.2	5883	6	2	7	3
CCc1cc(C(=O)N(C)CC(=O)Nc2c(Cl)cccc2Cl)sc1C	-5	2.0	4100	4	x	14	5
Cc1ccc(CCN2CC(C(=O)N3CCC4(CC3)OCCO4)CC2=O)cc1 (stereo not drawn)	-20	5.8	3684	-1	-9	3	3
COC(=O)C(CC(=O)c1ccc(C)cc1)n1cccn1 (stereo not drawn)	-12	4.4	4228	7	1	12	2
C=C1C[C@]23C[C@@]1(O)CCC2[C@@]12C=CC(O)[C@@](C)(C(=O)O1)C2C3C(=O)O (stereo partly drawn)	x	2.1	x	-4	x	3	-5
Cc1c(C(C)(C(=O)O)c2c(C)n(C)c3ccccc23)c2ccccc2n1C	x	1.0	x	-13	11	4	2
COc1ccc(/C(O)=C(\C#N)c2nc3ccccc3n2C)cc1OC	-50	x	21521*	x	1	x	x
CCOc1ccc(CNC2CCCCCCC2)cc1OC	-13	3.2	3132	2	1	-5	3
CCN(CC(=O)Nc1c(F)cccc1F)C(=O)c1ccc(S(=O)(=O)N2CCCCC2)cc1	-8	0.0	5531	2	8	6	12
O=C(NCCSc1c[nH]c2ccccc12)c1ccc(Br)o1	-19	0.4	5469	-15	1	-2	11
O=C(c1cc2ccccc2oc1=O)N1CCN(c2ccccn2)CC1	-26	-1.5	3514	-1	6	13	2
O=C(NCc1ccc2c(c1)OCO2)c1ccc(CS(=O)Cc2cccc(Cl)c2)o1 (stereo not drawn)	9	-1.3	4547	-1	-9	0	-2
CN1CCN(C(=O)CCN2C(=O)/C(=C\c3ccccc3F)SC2=S)CC1	-14	7.0	4480	4	16	11	7
CCCc1cc(=O)oc2c3c(cc(OCC(=O)N[C@@H](C)C(=O)O)c12)OC(C)(C)CC3	-26	-2.5	3973	9	6	17	11
Clc1ccc2c(c1)-c1[nH]ncc1CS2	-17	-11	3448	-30	3	6	12
Cc1ccc(-c2cc(Cc3ccccn3)c(=O)[nH]n2)cc1	-13	3.6	3032	-2	4	-2	4
C=CCn1c(=S)[nH]c2nc3c(cc2c1=O)CCCC3	-33	2.3	9161	3	10	6	-2
C=C1C(=O)O[C@@H]2C[C@@H](C)[C@@H]3C=CC(=O)[C@@]3(C)[C@@H](OC(=O)CC(=O)O[C@H]3[C@@H]4C(=C)C(=O)O[C@@H]4C[C@@H](C)[C@@H]4C=CC(=O)[C@]43C)[C@H]12	95*	x	3432	x	94*	x	x
CC(=O)NN1C(=O)c2ccccc2NC1c1ccco1 (stereo not drawn)	-9	x	4429	x	-2	x	x
O=C(CCc1ccc(S(=O)(=O)NCCc2ccccc2)cc1)N1CCN(Cc2ccc3c(c2)OCO3)CC1	1	3.3	21187*	-5	2	0	6
Cc1ccc(/C=C/C(=O)O)cc1S(=O)(=O)N(CCO)CCO	-9	x	4147	x	5	x	x
Cc1cc(NC(=O)c2ccccc2C)no1	-33	6.3	3470	7	4	14	9
COC(=O)c1sc2ccccc2c1-n1cccc1C(=O)C(=O)Nc1ccccc1	-13	-2.4	4582	-1	1	x	x
COc1ccc(S(=O)(=O)Nc2ccc(-c3ccc4nncn4n3)cc2)c(OC)c1	9	2.5	5278	-1	13	3	4
N#Cc1cnn(-c2cccc(Cl)c2)c1N	-13	4.1	4203	1	5	1	5
Cc1ccccc1OCC(=O)OCC(=O)Nc1ncc(Cl)c(C)c1Cl	-7	5.5	6277	8	x	6	1

# (further entries)
SMILES	PrP 5UTR inh	RN4220 kill	Autofluor counter	Sa ugtP lethal	BJeLR lethal	Mtb hypoxia rep	Mtb hypoxia rep growth
Cc1cccc(-n2c(Cc3cc(=O)[nH]c(=O)[nH]3)nnc2SCC(=O)NCc2ccco2)c1	4	3.8	3933	0	x	-2	9
Cc1ccc(OCc2cc(C(=O)N3CCCC(O)C3)no2)cn1 (stereo not drawn)	-14	2.7	5311	5	6	12	0
CC(=O)Nc1ccc(C=NNc2nc3ccccc3[nH]2)cc1	x	-1.3	x	6	x	-5	-8
c1ccc2oc(C3=NNC(=NC4CC4)SC3)cc2c1	14	-3.1	2050	-5	7	7	7
Cn1cccc1CNCc1ccc(F)cc1	-8	5.3	10167	-3	8	3	6
O=C(COc1ccccc1-c1ccccc1)N/N=C/c1ccncc1	-3	x	3450	x	-7	x	x
O=C1CC(/C=C/c2ccccc2)=Nc2ccccc2N1	-27	5.5	3936	5	5	-2	8
O=C(/C=C/c1cccs1)N1CCN(c2ccc(F)cc2)CC1	-14	-3.5	4776	2	-1	15	26
O=C(COC(=O)/C=C/c1cccc(C(F)(F)F)c1)NCc1ccccc1	-36	2.1	2075	4	11	5	1
O=C(Cc1ccccc1F)OCN1C(=O)c2ccccc2C1=O	-11	0.7	5264	2	-2	-3	1
O=C(O)c1nccnc1C(=O)NCc1csc2ccc(Cl)cc12	-25	3.4	6074	9	-5	2	11
CC(=O)c1ccc(NC(=O)N[C@@H](CC(C)C)C(=O)O)cc1	-20	14	3105	7	-6	-8	7
COc1ccc(C)cc1NC(=O)CCCN1C(=O)NC(C)(C)C1=O	-4	5.2	4245	8	x	3	-2
CCCS(=O)(=O)c1ccc(COC(=O)c2ccc(NC(C)=O)cc2)cc1	-26	2.7	4895	11	4	1	-1
COc1ccc(C(=O)C2CCCN(Cc3nc4ccccc4nc3C)C2)cc1OC (stereo not drawn)	1	7.6	4318	8	-12	12	1
O=C(NCCc1ccncc1)Nc1ccc(Cl)cc1	-23	0.3	4078	4	3	1	6
CSCCC(NC(=O)c1ccco1)C(=O)N1CCC(C(N)=O)CC1 (stereo not drawn)	-20	0.4	5167	8	0	1	0
Cc1nc(=O)c(-c2ccccc2)c(C)n1-c1ccccc1Cl	x	3.9	5709	2	0	0	-3
CCN(C(=O)COC(=O)c1cc2c(s1)CCCCC2)C1CCS(=O)(=O)C1 (stereo not drawn)	-14	1.5	5240	9	6	3	4
CC(=O)N[C@@H](Cc1c[nH]c2ccccc12)C(=O)OCC(=O)Nc1ccc2c(c1)OCO2	-8	2.8	4509	3	x	9	14
CCc1nc(CN2CCN(Cc3ccc(F)c(F)c3)C(CCO)C2)c(C)[nH]1 (stereo not drawn)	-12	2.7	2120	3	-8	5	8
CC(=O)c1cccc(NC(=O)c2cccc(NC(=O)c3ccco3)c2)c1	-12	-4.4	4162	-4	-2	0	-3
Fc1ccc(-n2cc(-c3ccccc3)c3c(N4CCOCC4)ncnc32)cc1	-11	-3.5	4053	-8	7	-13	5
CC(=NNC(=O)c1nnn(-c2nonc2N)c1-c1cccs1)c1cccc(O)c1	x	1.0	x	6	x	6	11
CCCCNC(=O)C1CCCN1S(=O)(=O)c1cccc2nsnc12 (stereo not drawn)	-17	1.7	4207	4	-9	10	4
COCc1cc(C)nc(N2CCNCC2)c1C#N	-15	4.7	10265	-6	1	9	12
Cc1ccc(NC(=O)CNC(=O)Cc2cccc3ccccc23)nc1	-21	-1.6	4030	5	3	0	-2
CC(C)(C)c1cc(C(=O)NNS(=O)(=O)c2ccccc2)n[nH]1	-18	5.0	6650	8	3	2	9

# Another view of some results above:
# Value order: PrP 5UTR inh | RN4220 kill | Autofluor counter | Sa ugtP lethal | BJeLR lethal | Mtb hypoxia rep | Mtb hypoxia rep growth
CCCCNC(=O)C1CCCN1S(=O)(=O)c1cccc2nsnc12 (stereo not drawn)
  -17 | 1.7 | 4207 | 4 | -9 | 10 | 4
COCc1cc(C)nc(N2CCNCC2)c1C#N
  -15 | 4.7 | 10265 | -6 | 1 | 9 | 12
Cc1ccc(NC(=O)CNC(=O)Cc2cccc3ccccc23)nc1
  -21 | -1.6 | 4030 | 5 | 3 | 0 | -2
CC(C)(C)c1cc(C(=O)NNS(=O)(=O)c2ccccc2)n[nH]1
  -18 | 5.0 | 6650 | 8 | 3 | 2 | 9
